AID923 – qHTS Assay for Allosteric/Competitive Inhibitors of Caspase-1: Spectroscopic Profiling in AFC Spectral Region; compound fluorescence, AFC spectral region (405/520 nm); almost no hit is shown here; 75,000 tested, 1.1% active; Potency, µM (series often up to 57.5 µM), inactives show at the top dose fluorescence increase, usual class: activators; active = well fitted activation curve with a large enough effect; inconclusive = small, poorly fitted or top-dose-only effect;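 note: potency is the fitted concentration of half-maximal effect; 0% is about no effect; scaled to a free AFC standard on each plate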
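Titrations up to 57 uM read every 20 sec for 3 min (405/520 nm) with 50 nM caspase 1 and 5 uM Ac-WEHD-AFC, pH 7.5 HEPES buffer. Fluorescence-vs-time intercept gave baseline, scaled against on-plate AFC standard.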
A488 autofl – compound fluoresces in the A488 spectral region | compound autofluorescence, A488 spectral region, dye equivalency; hits give high values | max dye equivalency, M | 59,000 tested, 0.1% active; active = above 10 nM dye equivalent; inconclusive = 1 to 10 nM; inactive = 1 nM or less; about half of its hits are not listed in these tables;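 note: highest value over a series up to 38 µM; compound alone in buffer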
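Read-out: relative fluorescence at 480/540 nm, expressed as Alexa 488 dye-equivalent concentration from a six-point A488 standard included per plate. Conditions: 100 mM Tris, pH 8.0; 15 min incubation, room temperature.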
TSHR agonist – activates the human thyroid stimulating hormone receptor. HEK293-CNG-TSHR cells (CNG channel as cAMP sensor), membrane potential dye, cAMP. Potency, µM (highest dose often 57.1 µM), for the others: top-dose activation, actives largely listed as activators. 73,000 tested, 0.48% active. AID 926; active = well fitted activation curve of enough size with the parental cells flat; inconclusive = any curve in the parental cells; inactive = parental cells flat and receptor cells flat or falling; note: potency is the fitted concentration of half-maximal effect; % of control where 0% means no effect; weak receptor curves with flat parental cells got no call and are not listed
Target sequence (P16473 whole entry, looked up): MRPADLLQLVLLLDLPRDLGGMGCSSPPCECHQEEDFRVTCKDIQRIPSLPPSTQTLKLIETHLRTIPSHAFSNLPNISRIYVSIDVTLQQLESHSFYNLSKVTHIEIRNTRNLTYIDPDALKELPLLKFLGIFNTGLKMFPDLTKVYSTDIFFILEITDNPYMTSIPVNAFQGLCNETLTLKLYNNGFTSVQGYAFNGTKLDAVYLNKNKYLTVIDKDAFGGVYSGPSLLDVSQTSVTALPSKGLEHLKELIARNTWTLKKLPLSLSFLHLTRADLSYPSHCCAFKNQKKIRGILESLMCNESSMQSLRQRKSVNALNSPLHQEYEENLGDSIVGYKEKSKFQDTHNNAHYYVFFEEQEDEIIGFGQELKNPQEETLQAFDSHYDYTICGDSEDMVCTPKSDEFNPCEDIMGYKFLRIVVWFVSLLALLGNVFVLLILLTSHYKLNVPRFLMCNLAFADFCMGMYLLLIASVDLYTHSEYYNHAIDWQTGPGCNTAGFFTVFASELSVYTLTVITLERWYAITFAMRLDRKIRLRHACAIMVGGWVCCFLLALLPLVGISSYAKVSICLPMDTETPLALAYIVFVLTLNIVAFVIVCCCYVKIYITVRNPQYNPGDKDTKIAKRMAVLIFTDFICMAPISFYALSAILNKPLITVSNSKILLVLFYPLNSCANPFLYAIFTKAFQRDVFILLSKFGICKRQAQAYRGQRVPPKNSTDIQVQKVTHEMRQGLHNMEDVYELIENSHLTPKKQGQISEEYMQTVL
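cAMP rise detected as CNG-channel membrane depolarization by fluorescent dye (emission 590 nm), 30 min after compound, following 60 min dye loading containing 100 uM RO 20-1724 at room temperature. Cells: TSHR/CNG HEK 293, with parental CNG HEK 293 as control.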
Resorufin fluor – resorufin region autofluorescence. Compound fluorescence, resorufin region 547/598 nm, buffer; hits give high values. AID 588. max dye-equivalent concentration, M. 59,000 tested, 0.04% active; active = above 10 nM dye equivalent; inconclusive = 1 to 10 nM; inactive = 1 nM or less; a few of its hits are not listed in these tables; note: highest value over a series up to 38 µM
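Dye-equivalent concentration values derive from comparing each well's 547/598 nm fluorescence against resorufin standards included on every plate. Incubation was 15 min at room temperature in 100 mM Tris, pH 8.0.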
A647 fluor – compound autofluorescence in A647 spectral region; Compound fluorescence, A647 channel (570/671 nm), Tris buffer; max dye-equivalent concentration, M; 59,000 tested, under 10 active; active means above 1 µM dye equivalent; inconclusive means 0.1 to 1 µM; inactive means 0.1 µM or less;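 note: values scaled relative to a standard on each plate; highest value over a series up to 38 µM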
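Fluorescence read (570 nm ex, 671 nm em) after 15 min RT incubation of compounds in 100 mM Tris buffer, pH 8.0; values expressed as dye-equivalent concentration against a six-point A647 standard series on each plate.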
Numbers without * were called inactive; [ ] = remark or other dose. Some of the compounds tested; the hit share may differ from the screen's.

For CC(=O)OC[C@@H]1O[C@@H](O/N=C2/C[C@@H](O)[C@@H](O)[C@@H]3[C@@H]4C(=O)N(C[C@@H]5CCCO5)C(=O)[C@H]4CC[C@H]23)[C@H](OC(C)=O)[C@H](OC(C)=O)[C@@H]1OC(C)=O the results were AID923 -2.3%[11.5 µM] and TSHR agonist -1.1%[11.4 µM].
Screening Cc1ccc(OCC(=O)Nc2ccc(S(=O)(=O)Nc3onc(C)c3C)cc2)cc1 returned AID923 0.4%, A488 autofl inactive, Resorufin fluor inactive and A647 fluor 1e-09.
CCn1c(SCC(=O)Nc2cc3oc4ccccc4c3cc2OC)nnc1-c1cccs1 was read as AID923 0.3%, A488 autofl inactive, TSHR agonist 9.1%, Resorufin fluor inactive and A647 fluor 4e-09.
Screening CC1CC(C)CN(CCC(=O)Nc2cccc(Cl)c2)C1 (stereo not given) returned AID923 3.6% and TSHR agonist 9.6%.
Cc1ccc(-n2ncc3c(NCC4CCCO4)ncnc32)c(C)c1 (stereo not given) was read as AID923 -1.2%, A488 autofl inactive, TSHR agonist -5.4%, Resorufin fluor inactive and A647 fluor 1.09e-08.
Screening Nc1nc2c(c(=O)[nH]1)N(C=O)[C@H](CNc1ccc(C(=O)N[C@@H](CCC(=O)O)C(=O)O)cc1)CN2 returned AID923 -1.6%[25.7 µM], A488 autofl inactive, TSHR agonist 0.2%[25.6 µM], Resorufin fluor inactive and A647 fluor 1.99e-08.
Screening COc1ccc(C2/C(=C(/O)c3ccccc3)C(=O)C(=O)N2CC(C)O)c(OC)c1 (stereo not given) returned AID923 0.3%, A488 autofl inactive, TSHR agonist 3.9%, Resorufin fluor inactive and A647 fluor 1e-09.
For Cc1cccn2c(=O)c3cc(C(=O)N4CCCc5ccccc54)n(C)c3nc12 the results were AID923 2.5%, A488 autofl inactive, TSHR agonist 5.7%, Resorufin fluor inactive and A647 fluor 1.22e-08.
`O=C1NC(=O)c2cc([N+](=O)[O-])ccc21` gave AID923 -0.6% and TSHR agonist -4.0%.
For COc1cc(CN/C(C)=C(\C#N)C(N)=O)cc(OC)c1OC the results were AID923 -1.5%, A488 autofl inactive, TSHR agonist inconclusive, Resorufin fluor inactive and A647 fluor 1.82e-08.
`Cc1[nH]c2ccccc2c(=O)c1CN(C)Cc1ccccc1` gave AID923 0.4%, A488 autofl inactive, TSHR agonist 4.7%, Resorufin fluor inactive and A647 fluor 3.6e-09.
CC(=O)SCC[N+](C)(C)C was read as AID923 -1.7%, A488 autofl inactive, TSHR agonist -4.7%, Resorufin fluor inactive and A647 fluor 2.63e-08.
Screening Cc1nnc(Sc2nc3ccccc3o2)c2ccccc12 returned AID923 -1.3%, A488 autofl inactive, TSHR agonist 14.2%, Resorufin fluor inactive and A647 fluor 1e-09.
`CCc1nc(SCC(=O)N2CCCc3ccccc32)c2c(=O)n(C)c(=O)n(C)c2n1` gave AID923 -0.7% and TSHR agonist inconclusive.
For CCCCNC(=O)COC(=O)c1cc2c(C)nn(-c3ccccc3)c2s1 the results were AID923 -0.3%, A488 autofl inactive, TSHR agonist inconclusive, Resorufin fluor inactive and A647 fluor 1.55e-08.
Screening CCNc1nc2c(c(=O)n(Cc3ccccc3)c(=O)n2C)n1Cc1ccccc1 returned AID923 0.4%, A488 autofl inactive, TSHR agonist 0.6%, Resorufin fluor inactive and A647 fluor 1e-09.
Screening Cc1occc1-c1nnc(SCC(=O)c2c(N)n(Cc3ccccc3)c(=O)n(C)c2=O)n1C returned AID923 -0.9%, A488 autofl inactive, TSHR agonist -4.1%, Resorufin fluor inactive and A647 fluor 1e-09.
For Cc1ccc(OCC2Cn3c(nc4c3c(=O)n(C)c(=O)n4C)O2)cc1 (stereo not given) the results were AID923 0.1%, A488 autofl inactive, TSHR agonist -1.5%, Resorufin fluor inactive and A647 fluor 1.34e-08.
For O=C(Cn1c(=O)oc2ccccc21)N(Cc1ccccc1)C1CCS(=O)(=O)C1 (stereo not given) the results were AID923 0.1%, A488 autofl inactive, TSHR agonist -1.4%, Resorufin fluor inactive and A647 fluor 5.8e-09.
`Cc1ccc(C)c(N2CCN(C(=O)CCCOc3cc(=O)n(C)c4ccccc34)CC2)c1` gave AID923 -0.8%, A488 autofl inactive, TSHR agonist inconclusive, Resorufin fluor inactive and A647 fluor 2.52e-08.

The final 3 entries of the part above are carried over, then new ones follow.
For Cc1ccc(OCC2Cn3c(nc4c3c(=O)n(C)c(=O)n4C)O2)cc1 (stereo not given) the results were AID923 0.1%, A488 autofl inactive, TSHR agonist -1.5%, Resorufin fluor inactive and A647 fluor 1.34e-08.
For O=C(Cn1c(=O)oc2ccccc21)N(Cc1ccccc1)C1CCS(=O)(=O)C1 (stereo not given) the results were AID923 0.1%, A488 autofl inactive, TSHR agonist -1.4%, Resorufin fluor inactive and A647 fluor 5.8e-09.
`Cc1ccc(C)c(N2CCN(C(=O)CCCOc3cc(=O)n(C)c4ccccc34)CC2)c1` gave AID923 -0.8%, A488 autofl inactive, TSHR agonist inconclusive, Resorufin fluor inactive and A647 fluor 2.52e-08.
COc1ccc(Oc2ncc3nc(CCc4ccccc4)c(=O)n(C[C@H]4CCCO4)c3n2)cc1 was read as AID923 7.3%, A488 autofl inactive, TSHR agonist inconclusive, Resorufin fluor inactive and A647 fluor 2.63e-08.
`COC(=O)Cc1nc2ccccc2[nH]1` gave AID923 11.8%, A488 autofl inactive, TSHR agonist 9.9%, Resorufin fluor inactive and A647 fluor 1.1e-09.
For CC(C)c1ccc(NC(=O)C2C3C=CC4(CN(CCCN5CCOCC5)C(=O)C24)O3)cc1 (stereo not given) the results were AID923 0.0%, A488 autofl inactive, TSHR agonist 2.2%, Resorufin fluor inactive and A647 fluor 1e-09.
For COc1ccc(OC)c(-c2cc(C(=O)O)c3cc4ccccc4cc3n2)c1 the results were AID923 -1.4%[11.5 µM], A488 autofl inactive, TSHR agonist 1.0%[11.4 µM], Resorufin fluor inactive and A647 fluor 1e-09.
Screening O=C(O)CC1NC(=O)N(c2ccc(Cl)cc2)C1=O (stereo not given) returned AID923 -1.1%, A488 autofl inactive, TSHR agonist -8.8%, Resorufin fluor inactive and A647 fluor 1e-09.
`O=C(O)C1CCCCC1C(=O)NCCc1ccc(Cl)cc1` (stereo not given) gave AID923 15.5%, A488 autofl inactive, TSHR agonist 6.9%, Resorufin fluor inactive and A647 fluor 1e-09.
`NC(=O)C1CCN(c2nc(-c3ccccc3)nc3ccccc23)CC1` gave AID923 -0.3%, A488 autofl inactive, Resorufin fluor inactive and A647 fluor 1.73e-08.
`O=C(NCc1ccccn1)C1CCCN(Cc2cnn(-c3ccccc3)c2-n2cccc2)C1` (stereo not given) gave AID923 5.0%, A488 autofl inactive, TSHR agonist 2.2%, Resorufin fluor inactive and A647 fluor 1.7e-09.
`O=C(Nc1ccncc1)c1cncc(Br)c1` gave AID923 0.4%, A488 autofl inactive, TSHR agonist -2.2%, Resorufin fluor inactive and A647 fluor 1e-09.
For CCN1C(=O)[C@H]2[C@H]3[C@H](O)[C@H](O)C/C(=N/OC/C=C(\C)CCC=C(C)C)[C@@H]3CC[C@@H]2C1=O the results were AID923 0.9%[11.5 µM] and TSHR agonist -4.6%[11.4 µM].
Screening Brc1ccc(Nc2c3c(nc4ncnn24)CCC3)cc1 returned AID923 0.9%, A488 autofl inactive, TSHR agonist inconclusive, Resorufin fluor inactive and A647 fluor 1e-09.
`CCCCNc1ncnc2c1cnn2-c1ccc(C)cc1C` gave AID923 -2.9% and TSHR agonist 1.7%.
COc1cc2c(OC)cccc2cc1C(=O)O was read as AID923 -0.4%, A488 autofl inactive, TSHR agonist 17.2%, Resorufin fluor inactive and A647 fluor 2.5e-09.
C[N@+]1(CCC(=O)c2ccccc2)CC[C@H]2CC[C@H](C2)C1 was read as AID923 0.7%[11.5 µM], A488 autofl inactive, TSHR agonist -1.6%[11.4 µM], Resorufin fluor inactive and A647 fluor 3.8e-08.
Screening COCCNc1ncncc1-c1ccccc1OC returned AID923 0.8%, A488 autofl inactive, TSHR agonist 7.8%, Resorufin fluor inactive and A647 fluor 4.29e-08.
Screening O=c1[nH]ncn2cccc12 returned AID923 1.6% and TSHR agonist -0.4%.
For NC(=O)C1CCN(C(=O)CSCc2ccccc2Cl)CC1 the results were AID923 1.5%, A488 autofl inactive, TSHR agonist -1.1%, Resorufin fluor inactive and A647 fluor 7.4e-09.
Fc1ccccc1Cn1nnc2c(NCc3ccccn3)ncnc21 was read as AID923 3.8%, A488 autofl inactive, TSHR agonist 1.1%, Resorufin fluor inactive and A647 fluor 3.6e-09.
`COc1ccccc1-n1c(SCC(=O)Nc2nnc(C)s2)nc2c(c1=O)SCC2` gave AID923 -0.5%, A488 autofl inactive, TSHR agonist 9.2%, Resorufin fluor inactive and A647 fluor 2.66e-08.
Screening Cc1ccc(-c2nnc(SC(C)C#N)n2N)cc1 (stereo not given) returned AID923 -1.7%, A488 autofl inactive, TSHR agonist 5.3%, Resorufin fluor inactive and A647 fluor 3.87e-08.
Screening Cc1cc(C)n(-c2nc(C)nc3c2cnn3-c2ccccc2)n1 returned AID923 1.1%, A488 autofl inactive, TSHR agonist 2.8%, Resorufin fluor inactive and A647 fluor 4.5e-09.
Screening Cc1ccc(CC2C(=O)N(c3ncccn3)C(=O)C2C)cc1 (stereo not given) returned AID923 -0.4% and TSHR agonist -10.6%.
Screening Cc1cc(NC(=O)c2cc(Cl)ccc2Cl)no1 returned AID923 -1.1%, A488 autofl inactive, TSHR agonist 7.8%, Resorufin fluor inactive and A647 fluor 1.48e-08.
For COc1ccccc1NC(=O)C1=C(C)NC(=O)NC1c1ccc(C)cc1 (stereo not given) the results were AID923 -3.9% and TSHR agonist 6.5%.
Cc1nc(-c2cn[nH]c2)c2cc(C)oc2n1 was read as A488 autofl inactive, Resorufin fluor inactive and A647 fluor 5.95e-08.
For CC1CC(C)(C)CC2(C1)NC(=O)N(CC(=O)NCC(c1ccco1)N1CCCCC1)C2=O (stereo not given) the results were AID923 2.7%, A488 autofl inactive, TSHR agonist 10.3%, Resorufin fluor inactive and A647 fluor 4.53e-08.
Screening CCCCC(=O)Nc1ccc(C(=O)Nc2ccc3c(c2)OCO3)cc1 returned AID923 -1.9%, A488 autofl inactive, TSHR agonist 1.0%, Resorufin fluor inactive and A647 fluor 6.3e-09.
Screening CCOC(=O)CN(C(=O)CNC(=O)c1ccco1)C(C(=O)NC1CCCCC1)c1cccc(OC)c1 (stereo not given) returned AID923 0.4%, A488 autofl inactive, TSHR agonist 25.9%, Resorufin fluor inactive and A647 fluor 1.48e-08.
CCCCN(CCCC)C(=O)CCS(=O)(=O)c1ccc2c(c1)n(C)c(=O)c(=O)n2C was read as AID923 0.0%, A488 autofl inactive, TSHR agonist 1.0%, Resorufin fluor inactive and A647 fluor 1.62e-08.
Screening Cn1cc(C(=O)NC2CCCCC2)c(=O)c2cc(S(=O)(=O)N3CCCC3)ccc21 returned AID923 0.7%, A488 autofl inactive, TSHR agonist -5.0%[11.4 µM], Resorufin fluor inactive and A647 fluor 1.8e-09.
N#CC1=C(SCC(=O)c2ccc(Cl)cc2)NC2=C(C(=O)CCC2)C1c1ccco1 (stereo not given) was read as A488 autofl inactive, Resorufin fluor inactive and A647 fluor 3.06e-08.
`O=C(CCn1cccc1)NCc1ccc(Cl)cc1` gave AID923 1.7%, A488 autofl inactive, TSHR agonist 4.6%, Resorufin fluor inactive and A647 fluor 1.26e-08.
Screening CN(C)CCCN1C(=O)C(O)=C(C(=O)c2cc3ccccc3o2)C1c1ccccc1 (stereo not given) returned A488 autofl inactive, Resorufin fluor inactive and A647 fluor 2.7e-09.
Screening O=C(CCS(=O)(=O)c1ccc(Br)s1)NCc1cccs1 returned AID923 0.9%, A488 autofl inactive, TSHR agonist 3.1%, Resorufin fluor inactive and A647 fluor 7.4e-09.
Screening COc1ccc(CN2CCOCC2)c(C)c1C returned AID923 -0.8%, A488 autofl inactive, TSHR agonist 6.7%, Resorufin fluor inactive and A647 fluor 1.95e-08.
